BJeLR viability: BJeLR cell viability loss, primary screen, luminescence, CellTiterGlo ATP. 30,000 compounds, 0.64% hits. viability loss activity score, % (test concentration not listed). BJeLR fibroblasts viability, 48 h; HRASV12, hTERT and SV40 LT/ST transformed; in the data active = viability loss activity score above about 50%; about a fifth of its hits are not listed in these tables;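 note: higher score means fewer live cells and less ATP luminescence; stock transfer was 50 or 100 nL into about 30 µL; 0% = vehicle wells and 100% = a reference killing control; one replicate is shown; the record names a cut of 85%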
A1 inh: inducers of caspase activity in MEF A1-2A-BIM cells, primary screen, A1 inhibitor project, cell-based, CaspaseGlo luminescence; caspase-Glo luminescence, 3 h; percent of clofoctol signal, DMSO as zero; caspase activation, % (concentration not given with the values); 21,000 compounds, 0.51% hits; AID 2241, 2010;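 active = most replicate scores above 10, or exactly half above 10 with mean activity above 10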;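 note: effector caspase 3 and 7 activity cleaving a DEVD luciferin substrate; 50 nL library stock added to about 30 µL; numbers are from one replicate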
Numbers without * were called inactive; x = no result given. An excerpt; count on the stated rates, not on these rows.

Below each compound – BJeLR viability	A1 inh
> C[C@H]1CN([C@@H](C)CO)C(=O)c2cccc(NC(=O)Nc3ccc(F)cc3)c2O[C@@H]1CN(C)S(=O)(=O)c1ccc(Cl)cc1
→ -4.7	x
> C[C@H]1CN([C@@H](C)CO)C(=O)c2cc(NS(=O)(=O)c3ccc(F)cc3)ccc2O[C@@H]1CN(C)S(=O)(=O)c1cn(C)cn1
→ 0.0	-0.3
> C[C@H]1CN([C@@H](C)CO)C(=O)c2cc(NS(=O)(=O)c3ccc(Cl)cc3)ccc2O[C@H]1CN(C)CC1CCCCC1
→ -2.7	-0.5
> COC(=O)c1ccccc1NC(=O)COC(=O)c1cc2ccccc2o1
→ 0.3	-0.6
> C[C@H](CO)N1C[C@H](C)[C@@H](CN(C)S(=O)(=O)c2ccc(Cl)cc2)Oc2c(NC(=O)Nc3ccc(F)cc3)cccc2C1=O
→ -2.1	x
> Cc1ccc(S(=O)(=O)Nc2ccc3c(c2)C(=O)N([C@@H](C)CO)C[C@@H](C)[C@@H](CN(C)C(=O)Nc2ccccc2)O3)cc1
→ -3.3	-0.2
> O=C(NCc1ccco1)c1cc(-c2ccc(F)cc2)no1
→ 0.4	0.9
> O=C(c1ccncc1)N1C2C=CC(C2)C1(C(F)(F)F)C(F)(F)F (centres undefined)
→ -1.1	0.7
> CNC[C@H]1Oc2c(NC(=O)Nc3ccc4c(c3)OCO4)cccc2C(=O)N([C@H](C)CO)C[C@@H]1C
→ -5.6	x
> Cc1noc(C)c1NC(=O)Nc1ccc2c(c1)C(=O)N([C@@H](C)CO)C[C@@H](C)[C@H](CN(C)Cc1ccncc1)O2
→ 1.1	-0.2
> O=C(c1ccc(COc2cc(Cl)ccc2Cl)o1)N1CCSCC1
→ -4.1	0.7
> Cc1cc(C)cc(Sc2ccc3nnc(-c4ccccc4)n3n2)c1
→ -4.1	0.8
> COc1ccc(NC(=O)N(C)C[C@H]2Oc3ccc(NC(=O)Cc4ccccc4)cc3C(=O)N([C@H](C)CO)C[C@H]2C)cc1
→ -3.8	0.2
> Cc1onc(-c2ccccc2Cl)c1C(=O)NCC12CC3CC(CC(C3)C1)C2
→ 1.7	0.2
> COc1ccc(S(=O)(=O)Nc2ccc3c(c2)C(=O)N([C@H](C)CO)C[C@H](C)[C@H](CN(C)C(=O)NC2CCCCC2)O3)cc1
→ 2.3	0.3
> COc1ccc(CN(C)C[C@H]2Oc3ccc(NC(=O)Nc4ccccc4)cc3C(=O)N([C@H](C)CO)C[C@H]2C)cc1
→ -0.7	0.9
> Cc1cccc(N(C)C(=O)c2coc(=O)c3ccccc23)c1
→ -2.2	x
> C[C@H]1CN([C@@H](C)CO)C(=O)c2cccc(NC(=O)c3ccc(-c4nccs4)cc3)c2O[C@@H]1CN(C)CC1CCCCC1
→ -1.1	x
> C[C@@H]1CN([C@H](C)CO)C(=O)c2cc(NC(=O)c3ccncc3)ccc2O[C@H]1CN(C)Cc1ccc(C(=O)O)cc1
→ 3.6	-0.2
> O=C(Nc1nnc(C2CCCCC2)s1)C1c2ccccc2Oc2ccccc21
→ 1.0	-0.1
> CC(C)C(=O)n1nc(-c2ccc(Cl)cc2)nc1NCc1ccccc1
→ 32.8	x
> C[C@@H]1CN([C@@H](C)CO)C(=O)c2cc(NC(=O)Nc3ccc(F)cc3)ccc2O[C@@H]1CN(C)C
→ 4.0	-0.6
> CC1(C)CC2CC(C)(CN2c2nc(-c3ccco3)cc(C(F)(F)F)n2)C1 (centres undefined)
→ 1.3	x
> Cc1ccc(S(=O)(=O)Nc2cccc3c2O[C@@H](CN(C)S(=O)(=O)c2cn(C)cn2)[C@@H](C)CN([C@@H](C)CO)C3=O)cc1
→ 0.0	x
> CCOC(=O)c1cccc2c1-c1ccccc1C2=O
→ -4.2	-0.7
> O=C1CSc2ccc(C(=O)NCCC3=CCCCC3)cc2N1
→ 3.6	0.0
> COc1ccc(OC)c(CCN=C2NS(=O)(=O)C(c3ccc(C)cc3)=C2C)c1
→ -0.6	0.5
> COc1ccc(S(=O)(=O)NCCN2CCNC2=O)cc1OC
→ 3.7	1.1
> Cc1ccc(CN2C(=O)CSc3ccc(C(=O)NCC4CCCO4)cc32)cc1 (centres undefined)
→ 0.4	-0.1
> N#C/C(=C\c1[nH]c2ccccc2c1O)C(=N)N1CCOCC1
→ 0.0	x
> C[C@H]1CN([C@@H](C)CO)C(=O)c2cccc(NS(=O)(=O)c3ccccc3)c2O[C@@H]1CN(C)Cc1ccc(C(=O)O)cc1
→ 4.4	x
> C[C@@H]1CN([C@H](C)CO)C(=O)c2cccc(NC(=O)Nc3ccc(C(F)(F)F)cc3)c2O[C@H]1CN(C)Cc1ccncc1
→ 1.8	x
> Cc1ccc(S(=O)(=O)Nc2ccc3oc(C)c(C(=O)NN)c3c2)cc1
→ 4.8	0.4
> C[C@@H]1CN([C@@H](C)CO)C(=O)c2cc(NC(=O)Cn3cnnn3)ccc2O[C@@H]1CN(C)C(=O)Nc1cccc2ccccc12
→ 3.4	1.0
> CC(C)Sc1n[nH]c(=O)n1-c1ccccc1
→ 5.2	-0.1
> COc1ccc(C(=O)O[C@H]2CC(C)=CCC3(C)CC[C@@](O)(C(C)C)[C@H]23)cc1 (some centres undefined)
→ 2.2	1.2
> CC1(C)Cc2ccccc2C(=NC(Cc2c[nH]c3ccccc23)C(=O)O)N1 (centres undefined)
→ 1.2	1.2
> C[C@@H]1CN([C@@H](C)CO)C(=O)c2cc(NC(=O)Nc3ccccc3)ccc2O[C@@H]1CN(C)C(=O)Nc1cccc2ccccc12
→ 45.6	-0.4
> CC(C)=CCn1cnc(=N)c2[nH]cnc21
→ -2.6	0.2
> C[C@H]1CN([C@@H](C)CO)C(=O)c2cccc(NS(=O)(=O)c3cn(C)cn3)c2O[C@H]1CN(C)S(=O)(=O)c1ccc(Cl)cc1
→ 2.7	x
> C[C@@H]1CN([C@@H](C)CO)C(=O)c2cccc(NS(C)(=O)=O)c2O[C@H]1CN(C)Cc1ccc(Cl)c(Cl)c1
→ -2.9	x
> CCN(CC)C(=O)Cc1noc2ccccc12
→ -3.9	-0.3
> O=C(NCc1ccccn1)c1ccc2nc(N3CCCCC3)sc2c1
→ -3.8	-3.2
> Cc1noc(C)c1S(=O)(=O)Nc1ccc2c(c1)C(=O)N([C@@H](C)CO)C[C@H](C)[C@@H](CN(C)Cc1ccc(Oc3ccccc3)cc1)O2
→ -1.0	-0.3
> C[C@H](CO)N1C[C@H](C)[C@H](CN(C)S(=O)(=O)c2ccc(Cl)cc2)Oc2c(NC(=O)Nc3ccc(C(F)(F)F)cc3)cccc2C1=O
→ 0.6	x
> CCc1ccc(NC(=O)Nc2nnc(N(CC)c3ccccc3)s2)cc1
→ 4.4	x
> COC(=O)c1sc(SC)c(C#N)c1-c1ccco1
→ -2.5	0.6
> Cc1ccc(S(=O)(=O)N(C)C[C@@H]2Oc3c(NC(=O)C4CCOCC4)cccc3C(=O)N([C@@H](C)CO)C[C@H]2C)cc1
→ 0.0	x
> Cc1noc(C)c1NC(=O)N(C)C[C@@H]1Oc2ccc(NC(=O)Nc3ccccc3)cc2C(=O)N([C@@H](C)CO)C[C@H]1C
→ 2.3	0.9
> COC(=O)c1ccc(NC(C)=O)cc1
→ -0.8	0.2
> Cc1ccc(C2C3=C(CC(C)(C)CC3=O)NC3=C2C(=O)c2ccccc23)cc1 (centres undefined)
→ -3.3	x
> CC1(C)CC(=O)c2c(SCCOC(=O)c3ccccc3Cl)sc(C#N)c2C1
→ -0.8	-1.0
> C[C@H](CO)N1C[C@H](C)[C@@H](CN(C)S(=O)(=O)c2ccc(F)cc2)Oc2c(NS(=O)(=O)c3cccs3)cccc2C1=O
→ -4.2	x
> C[C@H](CO)N1C[C@H](C)[C@@H](CN(C)Cc2ccc(C(=O)Nc3ccccc3N)cc2)Oc2ccc(NC(=O)C3CC3)cc2C1=O
→ -3.0	x
> C[C@@H]1CN([C@H](C)CO)C(=O)c2cc(NC(=O)Nc3ccc(F)cc3)ccc2O[C@H]1CN(C)C(=O)Nc1cccc2ccccc12
→ 0.2	-0.9
> C[C@@H]1CN([C@@H](C)CO)C(=O)c2cc(NC(=O)CCN3CCOCC3)ccc2O[C@@H]1CN(C)C(=O)Nc1ccccc1
→ -4.7	-0.5
> O=C(O)/C=C/C=C/c1ccccc1
→ 1.7	-1.5
> CNC[C@@H]1Oc2c(NS(=O)(=O)c3ccc(F)cc3)cccc2C(=O)N([C@@H](C)CO)C[C@@H]1C
→ -4.0	x
> Cc1ccc(S(=O)(=O)N(C)C[C@H]2Oc3ccc(NS(=O)(=O)c4cn(C)cn4)cc3C(=O)N([C@@H](C)CO)C[C@H]2C)cc1
→ -1.9	-0.4
> CC(CC(N)=O)OC(=O)c1cc(Cl)cc(O)c1O (centres undefined)
→ -3.2	-0.4

The listing continues.
Below each compound – BJeLR viability	A1 inh
> C[C@H]1CN([C@@H](C)CO)C(=O)c2cccc(NS(=O)(=O)c3cccs3)c2O[C@H]1CN(C)Cc1ccc2c(c1)OCO2
→ -2.0	x
> CC1CCN(Cc2ccccc2CO)CC1
→ 1.9	x
> COc1ccc(NC(=O)Nc2ccc3c(c2)C(=O)N([C@H](C)CO)C[C@@H](C)[C@H](CN(C)C(=O)Nc2ccccc2)O3)cc1
→ 3.2	-0.3
> CCc1ccc(N2C(=O)CC(Sc3ccccc3N)C2=O)cc1 (centres undefined)
→ -1.8	0.3
> CC(=O)Nc1sc2c(c1C(=O)O)CCc1ccccc1-2
→ 4.0	x
> COc1ccc(-c2csc(N3CCCC3C(=O)OCc3ccccc3)n2)cc1 (centres undefined)
→ -3.2	0.9
> C[C@@H]1CN([C@@H](C)CO)C(=O)c2cccc(NC(=O)C3CCCCC3)c2O[C@@H]1CN(C)C(=O)NC1CCCCC1
→ 0.9	x
> N#C/C(=C\c1c(Oc2ccccc2)nc2ccccn2c1=O)S(=O)(=O)c1ccccc1
→ -8.1	x
> C[C@@H]1CN([C@@H](C)CO)C(=O)c2cc(NS(=O)(=O)c3cn(C)cn3)ccc2O[C@H]1CN(C)Cc1ccc(C(F)(F)F)cc1
→ -5.9	0.2
> O=C(Oc1ccc(-c2ccccc2)cc1)c1ccco1
→ -8.8	-1.7
> CCCN(CCC)C(=O)c1cc2c(=O)n(CC)c3ccccc3c2s1
→ -3.8	x
> COc1c(C(=O)O)ccc2c1CCC(C)(C)O2
→ -1.7	1.3
> C[C@H](CO)N1C[C@H](C)[C@H](CN(C)Cc2ccc3c(c2)OCO3)Oc2c(NS(C)(=O)=O)cccc2C1=O
→ -3.6	x
> Cc1noc(C)c1NC(=O)Nc1ccc2c(c1)C(=O)N([C@@H](C)CO)C[C@H](C)[C@H](CN(C)C(=O)Nc1ccc(F)cc1)O2
→ 2.4	1.7
> CCN(CC)S(=O)(=O)c1ccc(Cl)c(C(=O)Oc2ccc(C)c(C)c2)c1
→ 0.6	-0.6
> COc1ccccc1OCCOc1ccc(-c2nc3sc4c(c3c(=O)[nH]2)CCCC4)cc1
→ -1.3	1.0
> COc1ccc(C(=O)Nc2ccccc2C2(C)CC2)cc1
→ -2.2	-0.7
> CNC[C@@H]1Oc2ccc(NC(=O)Cn3cnnn3)cc2C(=O)N([C@H](C)CO)C[C@H]1C
→ -7.4	0.3
> C[C@@H]1CN([C@@H](C)CO)C(=O)c2cc(N(C)C)ccc2O[C@H]1CN(C)Cc1ccc(-c2ccccc2)cc1
→ -1.9	0.2
> O=C(CSCc1ccc(F)cc1)NC1CCCCC1
→ -1.8	0.8
> COc1ccc(CN(CCC(c2ccc3c(c2)OCO3)c2ccccc2OC)C(=O)c2ccco2)cc1 (centres undefined)
→ 4.0	-0.9
> CCOC(=O)C(C(=O)Nc1ccc(N(CC)CC)cc1)C1CCCCC1 (centres undefined)
→ -0.6	-0.2
> C[C@H]1CN([C@@H](C)CO)C(=O)c2cccc(NS(=O)(=O)c3cccs3)c2O[C@H]1CN(C)C(=O)Nc1ccc2c(c1)OCO2
→ -8.2	x
> O=c1c(C(F)(F)F)cccn1Cc1ccccc1
→ 5.0	0.3
> COc1ccc(S(=O)(=O)N(C)C[C@H]2Oc3c(NC(=O)Nc4c(C)noc4C)cccc3C(=O)N([C@@H](C)CO)C[C@H]2C)cc1
→ -2.9	x
> COc1ccc(NC(=O)N(C)C[C@H]2Oc3ccc(NC(=O)Nc4ccc5c(c4)OCO5)cc3C(=O)N([C@H](C)CO)C[C@H]2C)cc1
→ 3.2	0.7
> O=C1CC(c2ccccc2)N(c2cccc(C(F)(F)F)c2)C(=S)N1 (centres undefined)
→ -0.4	-1.0
> Cc1nn(-c2ccccc2)c2sc(C(=O)OCN3C(=O)c4ccccc4C3=O)cc12
→ 2.2	-0.1
> CCNC(=O)CC1C(=O)N(CC)C(=S)N1NC(=O)c1ccccc1 (centres undefined)
→ 1.1	-0.2
> C[C@@H]1CN([C@@H](C)CO)C(=O)c2cc(NC(=O)c3ccncc3)ccc2O[C@@H]1CN(C)S(C)(=O)=O
→ 1.4	-0.1

Entries listed so far that have an aryl thioether with sulfur outside any ring, in the order listed:
Below each compound – BJeLR viability	A1 inh
> Cc1cc(C)cc(Sc2ccc3nnc(-c4ccccc4)n3n2)c1
→ -4.1	0.8
> CC(C)Sc1n[nH]c(=O)n1-c1ccccc1
→ 5.2	-0.1
> COC(=O)c1sc(SC)c(C#N)c1-c1ccco1
→ -2.5	0.6
> CC1(C)CC(=O)c2c(SCCOC(=O)c3ccccc3Cl)sc(C#N)c2C1
→ -0.8	-1.0
> CCc1ccc(N2C(=O)CC(Sc3ccccc3N)C2=O)cc1 (centres undefined)
→ -1.8	0.3
